CtBP-E1A inh – inhibitors of CtBP/E1A interaction; activity change, % (test concentration not listed); 340,000 compounds, 0.49% hits; AID 651724; AlphaScreen GST-E1A/His-CtBP binding, 1536-well; active compounds read low; control for the full effect not named in the record; in the data active means activity change below about -65%; inconclusive means about -30% to -65%; inactive means above about -30%; further: on the % scale 0 is the no-effect control and ±100 the full control effect
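Homogeneous bead-based format: GST-tagged E1A captured on glutathione donor beads, His-tagged CtBP on nickel acceptor beads; compounds precede bead addition by 2 h at 37 °C.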
Six1-Eya2 blk – Six1/Eya2 interaction inhibition; AlphaScreen GST-Six1/His-Eya2 binding, biochemical; active compounds read low; control for the full effect not named in the record; activity change, % (no concentration beside the values); 360,000 compounds, 0.56% hits; AID 651725; in the data active = activity change below about -65%; inconclusive = about -30% to -65%; inactive = above about -30%; further: on the % scale 0 is the no-effect control and ±100 the full control effect
Target sequence (O00167 whole entry, looked up): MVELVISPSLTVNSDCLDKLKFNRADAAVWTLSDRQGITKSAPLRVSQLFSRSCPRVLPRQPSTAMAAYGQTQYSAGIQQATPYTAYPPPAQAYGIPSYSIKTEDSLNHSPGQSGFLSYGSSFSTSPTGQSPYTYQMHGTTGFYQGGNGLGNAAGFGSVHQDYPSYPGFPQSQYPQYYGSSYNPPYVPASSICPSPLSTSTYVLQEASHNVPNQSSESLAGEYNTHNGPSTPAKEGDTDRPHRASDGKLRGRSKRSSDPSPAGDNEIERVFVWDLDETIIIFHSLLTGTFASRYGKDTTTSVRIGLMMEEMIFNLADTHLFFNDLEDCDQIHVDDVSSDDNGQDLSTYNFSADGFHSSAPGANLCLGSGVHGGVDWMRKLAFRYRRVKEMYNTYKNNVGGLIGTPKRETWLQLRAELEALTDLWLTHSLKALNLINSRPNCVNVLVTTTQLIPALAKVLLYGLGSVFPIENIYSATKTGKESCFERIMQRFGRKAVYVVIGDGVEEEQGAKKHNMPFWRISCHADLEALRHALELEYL
Target sequence (Q15475 whole entry, looked up): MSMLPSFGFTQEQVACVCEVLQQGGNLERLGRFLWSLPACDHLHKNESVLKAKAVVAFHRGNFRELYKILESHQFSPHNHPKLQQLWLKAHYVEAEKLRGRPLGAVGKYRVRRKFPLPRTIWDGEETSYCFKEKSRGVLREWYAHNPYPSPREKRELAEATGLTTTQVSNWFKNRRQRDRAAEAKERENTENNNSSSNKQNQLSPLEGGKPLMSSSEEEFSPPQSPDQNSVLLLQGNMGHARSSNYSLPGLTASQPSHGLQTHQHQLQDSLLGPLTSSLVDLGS
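Six1/Eya2 binding was read as AlphaScreen signal after compounds were pinned into GST-Six1 plus His-tagged Eya2 (5X stock 250/500 nM) in pH 8.0 Tris/NaCl/TCEP buffer, beads added, then incubated 1 h, 37 C, dark.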
D2 potentiator – human D2 receptor positive allosteric modulation. 360,000 compounds, 0.23% hits. DiscoveRx D2 beta-arrestin cells, luminescence, 90 min; 100% = 57 uM dopamine signal. potentiation, % (no concentration beside the values). AID 624464. P14416; active = potentiation of 50% or more; inconclusive = 30% to 50%; inactive = 30% or less;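 further: compound concentration not given in the record; tested on top of an EC20 dose of dopamine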
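PathHunter beta-arrestin assay in DiscoveRx D2 cells. Compounds were added with an EC20 of dopamine (50 nM final) for 90 min at 37 deg C. Luminescence was read 1 h after detection reagent, with 57 uM dopamine as the EC100 control.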
D2 agonist – human D2 receptor agonism in beta-arrestin assay; P14416; activation, % (no concentration beside the values); AID 624465; DiscoveRx PathHunter D2 beta-arrestin, luminescence, 90 min; 100% = 57 uM dopamine signal; 360,000 compounds, 0.084% hits; in the data active = activation above about 40%; inconclusive = about 15% to 40%; inactive = below about 15%; further: compound concentration not given in the record; the text of the record calls up to 30% inactive
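DiscoveRx PathHunter D2 beta-arrestin cells (2,100/well) attached overnight, then compound-stimulated 90 min at 37 C in HBSS/10 mM HEPES/0.1% Tween-20 buffer; beta-galactosidase complementation read by luminescence after 1 h at ambient temperature. Dopamine 57 uM final (EC100) as control.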
Sfp PPTase inh – blocks B. subtilis Sfp PPTase activity | Q9F4F7 | Biochemical Sfp PPTase activity, qHTS | Potency, µM, without a hit: max response, negative = inhibition, hits mostly inhibitors | 310,000 compounds, 3.5% hits | AID 1490; active means well fitted inhibition curve with a large enough effect; inconclusive means small, poorly fitted or top-dose-only effect, or another doubt; inactive means no such curve, though single readings can be large or run the other way;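 further: the enzyme is Sfp with the accession as filed and its product quenches rhodamine fluorescence; potency means the concentration at half of the fitted maximal effect; 0% = enzyme reaction without inhibitor and -100% = no enzyme wells; top concentration of the series not given in the record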
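Compounds were incubated with enzyme (final 15 nM) for 15 min at room temperature before substrate addition started the reaction. Fluorescence at 525 nm excitation, 598 nm emission was recorded immediately and after 30 minutes.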
PINK1 expr mod – modulators of PINK1 expression | Potency, µM (series often up to 76.6 µM), for inactives: at the highest dose activation (PINK1 increase), hits mostly activators | PINK1 immunofluorescence, high-content cytometry, 24 h | AID 624263 | 410,000 compounds, 0.2% hits; active = well fitted activation curve with a large enough effect; inconclusive = small, poorly fitted or top-dose-only effect; inactive = flat fitted curve, though single readings scatter; cell line not stated here;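 further: potency means the concentration at half of the fitted maximal effect; % of control where 0% means no effect; nearly all actives have a fitted effect of over 65% in size; a mitochondrial uncoupler was the plate control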
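Compound titrations (5 concentrations, 24 h) on a stable cell line; DMSO and CCCP controls. Endpoint: fixed-cell PINK1 immunofluorescence with mitochondrial, cell and nuclear markers, scanned by microplate cytometer.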
TRPV1 PAM – human TRPV1 potentiation; potentiation, % at 8.33 µM; AID 540277; 320,000 compounds, 0.02% hits; TRPV1-expressing cells, Fluo-8 calcium influx, capsaicin EC20 potentiation; host cell line not named in the record; control for the full effect not named in the record; Q8NER1; active means potentiation above 80%; inconclusive means 30% to 80%; inactive means below 30%; further: 0% is about no effect
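Fluo-8 calcium influx in TRPV1-expressing cells, kinetic read (ex 480/em 520 nm). Compound added and read 3 min for agonist activity, followed by capsaicin at EC20 final and 2 min further read for enhancement.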
The depositor's hits bear a star; ? = inconclusive; . = not tested or not shown; [ ] = another dose, or the depositor's remark.

Start of the listing, in advance (4 entries):
SMILES | CtBP-E1A inh | Six1-Eya2 blk | D2 potentiator | D2 agonist | Sfp PPTase inh | PINK1 expr mod | TRPV1 PAM
O=C(CSc1ccccc1F)OCC(=O)N1CCN(C(=O)c2ccco2)CC1 | -24 | 10 | -23 | -4.6 | . | -0.9% | -6
CC(=O)c1c(C)[nH]c(C(=O)NCCc2ccccc2)c1C | 4 | 7 | -10 | -2.0 | 9% | -5.1% | -14
COCc1cc(=O)[nH]c(N2CCN(Cc3ccc4c(c3)OCO4)CC2)n1 | . | 3 | -5 | -3.7 | 7% | -0.1% | ?
O=C(NNC(=S)NC(=O)c1ccc(F)cc1)c1cccnc1 | -1 | -12 | -7 | 3.1 | 4% | -0.6% | -3

This part in full, previewed entries included:
SMILES | CtBP-E1A inh | Six1-Eya2 blk | D2 potentiator | D2 agonist | Sfp PPTase inh | PINK1 expr mod | TRPV1 PAM
O=C(CSc1ccccc1F)OCC(=O)N1CCN(C(=O)c2ccco2)CC1 | -24 | 10 | -23 | -4.6 | . | -0.9% | -6
CC(=O)c1c(C)[nH]c(C(=O)NCCc2ccccc2)c1C | 4 | 7 | -10 | -2.0 | 9% | -5.1% | -14
COCc1cc(=O)[nH]c(N2CCN(Cc3ccc4c(c3)OCO4)CC2)n1 | . | 3 | -5 | -3.7 | 7% | -0.1% | ?
O=C(NNC(=S)NC(=O)c1ccc(F)cc1)c1cccnc1 | -1 | -12 | -7 | 3.1 | 4% | -0.6% | -3
CC(C)C(=O)Nc1ccc(Cc2ccc(NC(=O)C(C)C)c(O)c2)cc1O | -2 | -1 | 2 | 0.7 | 12% | 3.9% | -2
CCOC(=O)/C(C#N)=C/C1=C(N2CCOCC2)CC(C)(C)OC1 | -1 | -6 | 0 | -5.7 | 11% | -0.8% | 0
CCOC(=O)C1=C(C)N=C(/N=C/N(C)C)SC1c1ccccc1 (stereo not given) | -5 | -2 | -11 | -0.5 | 19% | 10%[38.3 µM] | -3
CCCCOc1ccc(/C=N/NC(=S)Nc2cc(C)ccc2C)cc1 | -10 | -2 | -1 | -0.6 | 6% | . | 3
CC(C)c1ccc(NC(=O)COC(=O)[C@@H]2CCCN2C(=O)c2cccs2)cc1 | 2 | -2 | 4 | 0.7 | . | 0.0% | .
CCN1C(=O)[C@H]2[C@@H](c3ccc(C)cc3)N3C(=O)N(c4ccc(C(F)(F)F)cc4)C(=O)[C@@]3(CC)[C@H]2C1=O | 3 | 1 | 17 | 0.6 | 2% | 2.7% | ?
COc1ccc(CNC2=CC(=O)CC(C)(C)C2)cc1 | -1 | 6 | -13 | -2.0 | 4% | 0.0% | -7
COc1ccc(Nc2cc(C)nc3nc(C)nn23)c(OC)c1 | 0 | -4 | 0 | -0.9 | -1% | -2.8% | 6
COc1cc(/C=C/c2ccccc2)cc(OC)c1 | 31 | 26 | 7 | -0.1 | . | ? | .
O=C(O)[C@H](CO)Nc1ncnc2sc3c(c12)CCC3 | -3 | 10 | -5 | -0.7 | 6% | -1.4% | 6
COc1cccc(-n2cnc3sc4c(c3c2=O)CCC4)c1 | -2 | 5 | -9 | -3.4 | 5% | 1.1% | 15
COc1cc(-c2ccc3c(=O)c4ccccc4n(C)c3c2)cc(OC)c1OC | . | 21 | 26 | ? | 8% | 0.2% | -9
CN(CC(=O)Nc1nc2ccc(F)cc2s1)S(=O)(=O)c1ccc(Cl)cc1 | 1 | 0 | 15 | 2.3 | 0% | -5.6%[38.3 µM] | -17
Cc1ccc(N/C=C/C(=O)c2cccs2)cc1 | -2 | 2 | -15 | -0.9 | 0% | 0.4% | -6
CN(C)S(=O)(=O)c1cccc(COC(=O)c2ccc3c(c2)OCO3)c1 | 6 | -2 | -2 | 2.9 | 1% | -1.9% | -10
Cc1ccc(C)c(SCC(=O)NC(=O)Nc2ccc3c(c2)OCCO3)c1 | -2 | 3 | 0 | -0.1 | 4% | 5.6% | 0
O=C1C=CC(=NN=C(c2ccccc2)c2ccccc2)C=C1 | 3 | -3 | -1 | 11 | . | 7.4% | .
C=CCn1cnc2c(nnn2Cc2ccc(F)cc2)c1=O | . | 8 | -13 | -4.2 | 6% | 0.7% | 1
Cc1ccc(NC(=O)c2ccc(NS(=O)(=O)c3c(C)noc3C)cc2)cc1C | -6 | -8 | -8 | -3.3 | 8% | 1.2% | -4
CCOc1cc(N2CCOCC2)c(OCC)cc1NC(=O)CN1CCSC1=O | -14 | -8 | -10 | 1.4 | . | -1.6% | -2
Cc1ccc(NC(=O)CN(C)C2CCCCC2)cc1Cl | 3 | 1 | -22 | -0.6 | -29% | 16% | 0
COCC(N)(c1ccccc1)c1nc2ccccc2n1C (stereo not given) | -13 | -13 | -8 | -1.0 | 16% | -6.0%[38.3 µM] | .
CCN(CC)S(=O)(=O)c1cccc(C(=O)N[C@H](C(=O)NC2=NCCS2)C(C)C)c1 | 5 | 4 | -2 | 5.3 | . | 4.7% | .
O=C(CCCCC(=O)NCc1cccs1)NCc1cccs1 | 3 | 2 | -10 | -1.2 | 12% | -1.5% | -4
COc1cc(NC(=O)c2ccc(Cl)cc2Cl)ccc1-c1cc2ccccc2oc1=O | 1 | 23 | -10 | 0.8 | 16% | 10.0% | 1
N#C/C(=C\c1ccc(-c2ccccc2Cl)o1)C(=O)Nc1nc2ccccc2s1 | 5 | 1 | 2 | -2.5 | 13% | 2.8% | -7

3 structures out of the list, arranged by molar mass, highest first.
SMILES | CtBP-E1A inh | Six1-Eya2 blk | D2 potentiator | D2 agonist | Sfp PPTase inh | PINK1 expr mod | TRPV1 PAM
CCOc1cc(N2CCOCC2)c(OCC)cc1NC(=O)CN1CCSC1=O | -14 | -8 | -10 | 1.4 | . | -1.6% | -2
N#C/C(=C\c1ccc(-c2ccccc2Cl)o1)C(=O)Nc1nc2ccccc2s1 | 5 | 1 | 2 | -2.5 | 13% | 2.8% | -7
COc1cc(-c2ccc3c(=O)c4ccccc4n(C)c3c2)cc(OC)c1OC | . | 21 | 26 | ? | 8% | 0.2% | -9

Going on with the list:
SMILES | CtBP-E1A inh | Six1-Eya2 blk | D2 potentiator | D2 agonist | Sfp PPTase inh | PINK1 expr mod | TRPV1 PAM
COc1ccccc1Nc1ncc(C(=O)N2CCC(C(N)=O)CC2)c2ccccc12 | 10 | 30 | -6 | -2.0 | -3% | 0.1% | -18
Cc1ccc(S(=O)(=O)Nc2nc3ccccc3nc2NCC2CCCO2)cc1 (stereo not given) | 1 | 0 | -2 | 1.2 | 21% | -0.9% | 2
COc1ccc(/C(C)=N/NC(=O)CNC(=O)c2ccncc2)cc1 | 0 | 2 | -12 | -8.2 | 22% | 1.5% | 18
CNS(=O)(=O)c1ccc(NC(=O)c2cc(-c3ccncc3)nc3ccc(Cl)cc23)cc1 | 8 | -1 | 5 | -1.8 | -21% | 0.7% | 5
O=C(NCc1ccc2c(c1)OCO2)C(=O)NC1CCCCC1 | 2 | 2 | -19 | -2.8 | 21% | 6.1% | 3
Cc1ccc(S(=O)(=O)Nn2cnnc2)cc1 | 7 | 9 | -6 | -1.3 | ? | 0.6% | 18
Cc1nn2c(NCCOCCO)c3c(nc2c1-c1ccccc1)CCC3 | -12 | -15 | -1 | -6.1 | ? | -0.8% | -21
O=C(c1ccc2c(=O)n(-c3ccccc3)c(=S)[nH]c2c1)N1CCCCC1 | 3 | -6 | -13 | -2.8 | -27% | 2.3% | ?
CC1CCN(c2nc(-c3cccnc3)nc3scc(-c4ccccc4)c23)CC1 | -3 | 1 | -6 | -3.9 | 5% | 1.7% | -2
COc1ccc(CNC(=O)C(CCSC)NC(=O)c2ccco2)cc1 (stereo not given) | -1 | 4 | 14 | -4.4 | 12% | 0.2% | 6
Cc1noc(C)c1CCC(=O)N1CCCC(N2CCN(c3ccc(F)cc3)CC2)C1 (stereo not given) | -2 | 0 | 4 | -4.4 | 7% | 0.3% | -14
COc1cccc(OCC(O)CNC(C)c2ccccc2)c1 (stereo not given) | 1 | 2 | -19 | -4.5 | 29% | -0.5% | 12
O=C(NCc1ccco1)C1CC(c2ccccc2C(F)(F)F)=NO1 (stereo not given) | 7 | 5 | -11 | 1.5 | -9% | 10% | -6
COc1ccccc1N1C(=O)c2cccc3c(N(C)CCO)ccc(c23)C1=O | 1 | 1 | -3 | -2.1 | 9% | 0.8% | ?
COc1cc(OC)cc(C(=O)NCCc2ccc(OC)c(OC)c2)c1 | . | -6 | -3 | 3.0 | . | -0.4% | .
COCCn1c(SCC(=O)Nc2ccc3c(c2)OCCO3)nnc1-c1c[nH]c2ccccc12 | -2 | -6 | -5 | -1.4 | 7% | -2.9%[38.3 µM] | 25
O=C(CCCCn1c(=S)[nH]c2ccsc2c1=O)NCc1ccco1 | -12 | -1 | -5 | 4.8 | ? | ? | -5
C=CCNc1nc(C(=O)OCC)nc2ccccc12 | . | 2 | -5 | -2.4 | 4% | 1.8% | 9
Cc1cc(C(=O)Nc2ccccc2)c2ccccc2n1 | -13 | -12 | 0 | -2.8 | 9% | -0.6% | 2
COc1cc(C2NCC(c3ccc(Cl)cc3Cl)c3c2[nH]c2ccccc32)cc(OC)c1OC (stereo not given) | -20 | -22 | -6 | -2.3 | ? | 3.2% | -1
S=C(Nc1ccccc1)N1N=CCC1c1ccccc1 (stereo not given) | 6 | 1 | -7 | 0.4 | -1% | 0.5%[38.3 µM] | -7
COc1cccc(-c2nc(SCC(=O)Nc3nc(-c4ccccc4)c(C)s3)[nH]c(=O)c2C#N)c1 | -7 | -11 | -1 | 0.8 | 12% | 4.9% | ?
COc1cc(OC)c(NC(=O)C2CC(=O)N(c3ccc4c(c3)OCCO4)C2)cc1Cl (stereo not given) | -7 | -17 | -12 | -3.8 | . | 2.4% | -6
Cc1nc2cccnc2nc1C | . | -2 | 2 | -2.8 | 15% | 1.6% | -4
COc1cccc(C2Nc3ccccc3NC3=C2C(=O)CC(C)(C)C3)c1 (stereo not given) | 3 | 1 | -2 | -0.7 | 21% | 1.4% | 2
Cc1cc(NC(=O)CSc2ccnc(=O)[nH]2)no1 | 5 | -1 | -13 | -0.6 | . | 1.5% | -3
CCC1(C)NC(=O)N(CC(=O)Nc2sc3c(c2C(N)=O)CCC3)C1=O (stereo not given) | -12 | -10 | -12 | -1.2 | ? | -0.3% | 4
O=C(O)c1cc2nc3c(c(C(F)(F)F)n2n1)CCCC3 | 6 | 3 | -2 | -2.5 | 20% | -0.4% | 13

High-throughput results deposited in PubChem BioAssay by National Center for Advancing Translational Sciences (NCATS).
